Screening data from PubChem BioAssay.
Sa ugtP lethal – growth inhibition of ugtP-null S. aureus, primary screen, RN4220 ugtP deletion, OD600; 16 h; some inactives read as strong as hits; growth inhibition, % (concentration not given with the values); 0.54% of 330,000 active; AID 1259309, 2017;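 active = z-score under -3 and OD600 up to 0.15 on both plates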;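 also: plate controls were untreated wells for no effect and antibiotic for full effect; wells of about 80 µL received 100 nL stock; the first replicate is given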
BJeLR lethal – MLPCN primary cell-based screen for lethality selective to Ras in HRASV12 cells; BJeLR (HRASV12) viability, CellTiter-Glo ATP luminescence, 48 h; reference of the scale not given here; inhibition, % (no concentration beside the values); 0.17% of 300,000 active;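 active = replicate mean above 50%; inconclusive = above 50% but judged a plate artefact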;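 also: 50 nL library stock added to about 25 µL; numbers are from one replicate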
PrP 5UTR inh – inhibition of PrP 5' UTR reporter expression; cell-based PrP 5' UTR mRNA reporter, plate reader; inhibition, % (test concentration not listed); 0.35% of 340,000 active;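 active = every replicate at 50% or more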;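 also: 0 = median of the neutral control wells; tested in H4 reporter cells; numbers are from one replicate; inactives centre near -14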
RN4220 kill – growth inhibition of S. aureus RN4220, primary screen, OD600 | 16 h | inhibition, % (test concentration not listed) | 0.33% of 330,000 active | AID 1259311, 2017;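 active = z-score of -3 or lower and OD600 up to 0.18 on both plates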;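 also: plate controls were untreated cells for no effect and reference antibiotic for full effect; stock transfer was 100 nL into about 80 µL; one replicate is shown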
Bead autofluor – counter-screen for toxin protease inhibitors: compound fluorescence; AID 624483; fluorescence intensity (no concentration beside the values); compound autofluorescence counterscreen, microsphere flow cytometry; active compounds read high; 3.1% of 360,000 active;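 active = at least 3 SD above the mean of all compounds, about 16000 in these data; inconclusive = too few beads counted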;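 also: 100 nL of 1 mM stock went into each well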
Mtb hypoxia rep – PubChem AID 1159583 | M. tuberculosis hypoxia-regulated fluorescent reporter, fluorescence | fluorescence inhibition, % (concentration not given with the values) | 0.1% of 300,000 active;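 active = 35 to 45% if threefold the growth effect, above 45% if 1.5-fold the growth effect; inactive = the rest, general growth blockers included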;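 also: wells of about 50 µL received 100 nL stock; 0% = vehicle wells and 100% = reference inhibitor wells; whole bacteria with a GFP reporter of the hypoxia response; strong numbers were not always called active; many hits fall short of the cut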
Mtb hypoxia rep growth – recorded beside Mtb hypoxia rep, whose call it bears; growth inhibition, %; measured here: M. tuberculosis growth (absorbance);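 0% = vehicle and 100% = reference antibiotic; read after six days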
* = called active by the depositor; ? = inconclusive; / = not tested or not shown. Not a hit list (roughly 3.9% active in at least one column).

cpd	SMILES	RN4220 kill	PrP 5UTR inh	Mtb hypoxia rep	Sa ugtP lethal	BJeLR lethal	Mtb hypoxia rep growth	Bead autofluor
1	CCn1nc(C)c(Oc2ccccc2O)c1C	2.9	-12	6	-2	-3	10	9105
2	CC(C)c1c(C(=O)NN=Cc2ccco2)nnn1-c1nonc1N	5.4	/	7	6	/	1	/
3	Cc1ccc2c(c1)cc(C(=O)N1CCN(c3ccccn3)CC1)n2C	4.8	-7	17	2	0	7	4200
4	Nc1nc(SCC(=O)Nc2ccccc2Oc2ccccc2)n[nH]1	6.7	-4	/	2	-2	/	1994
5	CSc1ncccc1C(=O)OCC(=O)N(C)c1c(N)n(Cc2ccccc2)c(=O)[nH]c1=O	-5.9	-7	-1	3	0	4	?
6	COc1ccc2[nH]c(=O)c(CN(Cc3ccco3)C(=O)c3ccccc3)cc2c1	8.5	0	10	-4	3	8	3175
7	CCC(C)C1C(C#N)=C(N)Oc2n[nH]c(-c3ccccc3)c21 (stereo unspecified)	6.2	-35	-2	-14	3	-1	5356
8	Cn1c(SCC(=O)N2CCCCC2)nc2c(c1=O)SCC2	2.5	-24	5	4	-11	-2	4370
9	COc1cc(C(=O)NCC(=O)n2nc(C)cc2C)cc(OC)c1OC	0.3	-46	14	-4	-5	5	3724
10	CCOc1ccc(N=Cc2c(O)cc(C)oc2=O)cc1	4.5	-12	-4	7	-10	0	4814
11	COC(=O)c1ccc(COC(=O)c2ccccc2OC)cc1	3.8	-25	-6	6	9	4	2441
12	COc1cccc(C(=O)O/N=C(\N)c2ccncc2)c1	1.0	/	-5	4	/	1	7813
13	COC(=O)C1=NN(C(=O)c2ccc(Cl)cc2)C(O)(c2ccccc2)C1 (stereo unspecified)	1.4	-12	7	4	-18	-6	11154
14	COc1ccc(-c2cc(C#N)nc(Cl)n2)cc1	8.6	-2	13	36	-1	6	4290
15	COc1ccccc1NC(=S)N(CCc1c(C)[nH]c2ccccc12)Cc1cccs1	-2.9	-5	-7	-19	10	2	4649
16	CC12CCC(=O)N1C(C(=O)Nc1nnc(SCc3ccc(F)cc3)s1)CS2 (stereo unspecified)	10	-33	7	4	3	2	5389
17	Cc1ccc(S(=O)(=O)/N=C2\C=C(Nc3cccc(C(=O)O)c3)C(=O)c3ccccc32)c(C)c1	/	-25	/	/	30	/	5406
18	N#Cc1c2c(c(NCCN3CCOCC3)n3c1nc1ccccc13)CCCC2	0.7	-15	-2	-3	-6	-2	3610
19	Nc1cc(C(=O)OCC(=O)NCCCc2ccccc2)ccc1Cl	1.8	12	1	10	-1	-13	2913
20	O=C(C1CCC1)N1CCc2cc(S(=O)(=O)N3CCN(c4ccccn4)CC3)ccc21	-2.1	-20	/	3	2	/	2408
21	Cc1csc2ncc(C(=O)N(Cc3ccccc3)c3ccccn3)c(=O)n12	-10	-7	-1	-6	-5	8	5833
22	COc1ccc(OCCCC(=O)Nc2cccc([N+](=O)[O-])c2C)cc1	10	-7	12	2	1	10	2517
23	CCOC(=O)c1cnc(-c2ccccc2)nc1-c1ccccc1	3.0	-27	0	30	-12	16	4671
24	N#Cc1cc(-c2ccccc2)cnc1Sc1ccc(Cl)cc1	1.1	6	6	18	-2	17	24808*
25	CCC(=O)Oc1ccc2c(=O)c(-c3ccc4ccccc4n3)c(CC)oc2c1C	-0.6	-9	-2	-12	-10	8	2582
26	O=C(NCCc1ccccc1)c1ccccc1NC(=O)C1CC=CCC1C(=O)O (stereo unspecified)	3.0	-37	0	-2	-12	12	2141
27	Cn1nnnc1SCCNCc1ccccc1F	1.6	-6	14	1	-3	11	22828*
28	CCOC(=O)N1CCC(Nc2ccc(N3C(=O)C4CCCCC4C3=O)cc2[N+](=O)[O-])CC1 (stereo unspecified)	4.7	-36	0	5	1	-2	3463
29	COc1ccc(C2CC2C(=NO)c2ccccc2)cc1 (stereo unspecified)	9.9	/	6	14	/	6	/
30	O=C(CCc1nnc(Cc2c[nH]c3ccccc23)o1)NC(C1CC1)C1CC1	-1.0	-26	-5	-3	2	-11	3694
31	COc1ccc(C(=O)NCCNc2ccc([N+](=O)[O-])cn2)cc1	3.6	0	-4	2	-8	19	3886
32	O=C(CN1CCN(CC(=O)c2ccc(F)cc2)CC1)Nc1ccccc1Cl	-0.3	-18	/	0	-4	/	4721
33	COc1nc(N(C)C)nc(N(C#N)S(=O)(=O)c2ccc(C)cc2)n1	/	10	/	/	6	/	3320
34	COc1ccc(-c2cc(C(=O)n3cnc4ccccc43)c3ccccc3n2)cc1	7.8	-17	/	-3	-2	/	4260
35	CN(Cc1ccccc1)C(=O)c1ccc(NC(=O)Cc2ccc(NC(=O)C3CCCN(C(=O)C4CCC4)C3)cc2)cc1 (stereo unspecified)	3.0	-13	-3	2	/	3	4043
36	COc1ccc(-c2cc(-c3nnc(COC(=O)CC4CC5CCC4C5)o3)c3ccccc3n2)cc1OC (stereo unspecified)	2.1	4	18	-16	0	7	2180
37	O=C(O)/C(=C\c1ccccc1)c1ccc2ccccc2c1	12	/	5	4	-2	-3	/
38	Cc1cnc(C(=O)OCC(=O)Nc2cccc(S(=O)(=O)N3CCCCC3)c2)cn1	3.4	-7	1	2	-4	10	2859
39	O=C(C=NO)NCc1cccnc1	6.8	/	-9	2	/	-6	/
40	COc1ccc(N(C(=O)c2snc(C(N)=O)c2N)C(C(=O)NC2CCCCC2)c2ccc(C)o2)c(OC)c1 (stereo unspecified)	3.2	-2	-11	6	4	10	3625
41	CC(=O)c1cn(CCCCCCCn2cc(C(C)=O)c(=O)[nH]c2=O)c(=O)[nH]c1=O	2.0	-22	1	12	-1	-6	2469
42	NC(=O)C1CCN(C(=O)Nc2csc3ccccc23)CC1	2.8	/	2	4	11	2	/
43	COC(=O)[C@@]1(Cc2ccc(F)cc2)C2c3cc(C(=O)N(C)C)n(Cc4ccc(OC)c(OC)c4)c3CC2CN1C(=O)c1ccccc1 (stereo partly specified)	1.6	/	-2	0	/	8	/
44	CCOC(=O)c1ccc(S(=O)(=O)N2CCC(N3CCCCC3)CC2)cc1	2.1	-10	/	-2	6	/	7882
45	CCOC(=O)CSc1nnc(Cc2ccccc2)n1CC1CCCO1 (stereo unspecified)	3.9	-24	1	10	-3	2	7915
46	Cc1cc(-c2ccco2)n(-c2ccccc2)n1	3.1	-54	10	-7	-4	4	3845
47	COc1cc2c(cc1OC)C(c1ccc(N(C)C)cc1)CC(=O)N2 (stereo unspecified)	-1.0	-8	/	-4	1	/	2427
48	Cc1nc(CCNC(=O)Cc2ccccc2)cs1	-0.3	3	5	0	-3	12	2797
49	CCCCSc1nnc(-c2ccc(C)cc2)c2ccccc12	-1.8	-12	4	1	5	6	10146
50	COC(C(=O)NN=C(C)CC(=O)Nc1ccc(Cl)cc1C)c1ccccc1 (stereo unspecified)	2.0	/	9	8	/	12	/

A few values from the results shown.
entry 29 in Mtb hypoxia rep: 6
entry 32 in BJeLR lethal: -4
entry 36 in Mtb hypoxia rep growth: 7
entry 46 in BJeLR lethal: -4

The listing continues.
cpd	SMILES	RN4220 kill	PrP 5UTR inh	Mtb hypoxia rep	Sa ugtP lethal	BJeLR lethal	Mtb hypoxia rep growth	Bead autofluor
51	COc1ccc(Cc2nc3ccc(C(=O)NCC(C)(C)OC)cc3o2)cc1	3.6	-38	16	-2	1	9	4051
52	CN(CC(=O)Nc1ccccc1C(F)(F)F)C(=O)COc1ccccc1Cc1ccccc1	/	-3	/	/	-2	/	?
53	Cc1ccc(NC2=NCC(Cc3ccc(Br)cc3)S2)cc1 (stereo unspecified)	4.0	-24	5	2	-2	1	2120
54	O=C(NCC(=O)N1CCCCCCC1)c1ccc(Br)o1	0.3	-39	12	5	-1	8	?
55	Cc1ccc(C(=O)Nc2nccc(C)n2)cc1	3.4	-34	11	13	2	2	3487
56	O=[N+]([O-])c1ccc(C(O)CSC(=S)N2CCCCC2)cc1 (stereo unspecified)	2.5	-55	22	2	4	17	3717
57	O=C(c1ccccc1NS(=O)(=O)c1cccc([N+](=O)[O-])c1)N1CCOCC1	2.4	-15	6	2	7	2	11346
58	COc1cccc(C(=O)Nc2ccc(C(=O)c3ccncc3)cc2)c1	2.0	-9	9	0	2	1	3813
59	Cc1ccc(N2CC(C(=O)Nc3nnc(SCC(=O)Nc4cc(C)on4)s3)CC2=O)cc1 (stereo unspecified)	/	-32	/	/	-12	/	10672
60	COc1ccc(N(C(=O)CNC(=O)c2ccco2)C(C(=O)NCC2CCCO2)c2ccccc2)cc1Cl (stereo unspecified)	5.3	-14	7	12	7	2	5873
61	Cc1cc(C(=O)N/N=C/c2c3ccccc3cc3ccccc23)n[nH]1	/	-24	/	/	6	/	5532
62	COc1ccccc1/C=C/C=N/N1CCN(Cc2ccc(Cl)cc2)CC1	/	-18	/	/	-9	/	10995
63	CCCCc1c(O)nc(SCC(=O)O)[nH]c1=O	6.1	-29	-2	-2	1	-3	4626
64	CN(/N=C/c1ccc(O)cc1O)c1ncc(C(F)(F)F)cc1Cl	/	-5	/	/	-4	/	4367
65	CCOCCCNC(=O)C1CCN(S(=O)(=O)N2CCCC2)CC1	3.8	-29	5	4	4	2	6931
66	Cc1cc(-c2ccccc2)n(-c2ccc(C(N)=O)cc2)n1	5.3	-46	10	11	1	4	2672
67	O=c1c2ccccc2cnn1Cc1n[nH]c(=S)n1-c1ccc(F)c(Cl)c1	2.9	-28	-4	10	12	3	5314
68	Clc1ccc(-c2nnc3n2CCCCC3)cc1	1.4	-57	/	6	4	/	2980
69	O=C(COC(=O)CNC(=O)C1CCCCC1)Nc1ccc2ccccc2c1	-1.7	-11	/	3	9	/	4530
70	Fc1c(F)c(F)c(CSc2nc3ccccc3[nH]2)c(F)c1F	-1.2	-21	0	-6	6	5	3796
71	Cc1[nH]c(C)c(S(=O)(=O)N2CCN(c3cccc(Cl)c3)CC2)c1C(=O)N1CCCC1	-0.3	7	-11	-5	0	8	6199
72	CCOC(=O)c1c(C)[nH]c(C(=O)C(C)OC(=O)c2cnc(C)cn2)c1C (stereo unspecified)	1.6	-4	-3	2	/	5	4102
73	O=C1CCC(O)CCN1C(CSc1ccc(Br)cc1)Cc1ccccc1 (stereo unspecified)	4.3	/	10	29	/	10	/
74	CC(=O)N1CCOc2ccc(S(=O)(=O)N3CCCCC3)cc21	1.4	-15	0	0	-11	-1	5796
75	Cc1cc(C=NNC(=O)c2ccccc2F)c(C)n1-c1ccccc1	1.9	/	3	4	/	6	/

Single records (already shown). Values in the order: RN4220 kill	PrP 5UTR inh	Mtb hypoxia rep	Sa ugtP lethal	BJeLR lethal	Mtb hypoxia rep growth	Bead autofluor
Results for `COc1ccccc1/C=C/C=N/N1CCN(Cc2ccc(Cl)cc2)CC1` = /	-18	/	/	-9	/	10995
Results for `O=c1c2ccccc2cnn1Cc1n[nH]c(=S)n1-c1ccc(F)c(Cl)c1` = 2.9	-28	-4	10	12	3	5314
Results for `CC(=O)N1CCOc2ccc(S(=O)(=O)N3CCCCC3)cc21` = 1.4	-15	0	0	-11	-1	5796

Further results
cpd	SMILES	RN4220 kill	PrP 5UTR inh	Mtb hypoxia rep	Sa ugtP lethal	BJeLR lethal	Mtb hypoxia rep growth	Bead autofluor
76	Cc1ccc(C(=O)COC(=O)c2cnccn2)cc1	3.6	-2	5	6	8	0	3195
77	CCOC(=O)c1cnc2ccc(Cl)cc2c1NCCN(C)C	1.0	-15	/	-3	-1	/	2394
78	CCCCNC(=O)C(c1ccc(OCC(=O)OC)c(C(=O)OC)c1)N(CCc1ccccc1)C(=O)CCCCCN1C(=O)NC(c2ccc(-c3ccccc3)cc2)C(C(=O)OCc2ccccc2)=C1C (stereo unspecified)	-2.7	/	-11	-2	/	9	/
79	Cc1ccc(NC(=O)[C@@H](CC(C)C)NC(=O)[C@@H]2Cc3ccccc3CN2)cc1	0.6	-31	14	3	-9	7	5898
80	O=C(Nc1ccc(Cl)cc1)C(c1ccccc1)N(CCO)CCO (stereo unspecified)	4.2	-27	6	1	-1	12	20747*
81	CCCC12CN3CC(C)(CN(C1)C3c1ccco1)C2=O (stereo unspecified)	7.3	-21	10	10	-2	0	5186
82	CCCCCC1CC(=O)N(Cc2ccccc2)C(=O)N1 (stereo unspecified)	1.6	-11	9	-8	6	9	2773
83	CCOC(=O)c1sc(NC(=O)Cc2ccc(F)cc2)nc1C	5.0	-38	9	9	-9	5	4358
84	Cc1ccc(N2CN(CCc3ccccc3)CNC2=S)cc1	3.1	-16	19	16	-5	22	3988
